Screening results from PubChem BioAssay.
M1 ag parental: counter-screen for M1 agonists: effect in parental CHO-K1 cells | activation, % at 3 µM | hit rate 0.48% among 360,000 | Fluo-8 calcium fluorescence; scaled to maximal ATP response, vehicle zero; in the data active means activation above about 15%;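 further: untransfected CHO-K1 host cells lacking M1 receptor as counterscreen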
CHRM1 antagonist: antagonists of human M1 muscarinic receptor | P11229 | CHO-K1 hM1, Fluo-8 calcium fluorescence, ACh EC80 antagonist | inhibition, % at 3 µM | hit rate 1.3% among 360,000 | AID 588852;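 active means percent inhibition above its own plate's cutoff, namely the mean of that plate's compound wells plus 3 SD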;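 further: peak over basal fluorescence ratio during 140 s after agonist addition; 0% = ACh EC80 plus DMSO and 100% = DMSO alone without agonist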
TAAR1 ag: agonists of human TAAR1. hit rate 0.99% among 360,000. AID 624467. activation, % at 3 µM. Q96RJ0. CHO RD-HGA16 TAAR1, Fluo-8 calcium fluorescence; vehicle wells 0%, saturating PEA agonist 100%;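 active means activation above the mean activation of all test compounds in the run plus 3 SD, cut at about 38% in these data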
Target sequence (Q96RJ0 whole entry, looked up): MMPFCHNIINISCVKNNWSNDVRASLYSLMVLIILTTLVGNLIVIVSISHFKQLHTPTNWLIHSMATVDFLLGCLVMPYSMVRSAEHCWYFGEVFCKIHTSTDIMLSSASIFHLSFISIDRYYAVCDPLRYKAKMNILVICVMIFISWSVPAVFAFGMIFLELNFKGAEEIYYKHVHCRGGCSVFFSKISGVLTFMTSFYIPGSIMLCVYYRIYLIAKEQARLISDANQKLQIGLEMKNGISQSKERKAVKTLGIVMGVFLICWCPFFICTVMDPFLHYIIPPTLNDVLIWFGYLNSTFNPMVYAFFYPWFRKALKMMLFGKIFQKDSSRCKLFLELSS
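Signal – calcium-sensitive Fluo-8 signal, excitation 470-495, emission 515-575 nm · System – RD-HGA16 (CHO) cells co-expressing Gα16 and hTAAR1 · Incubation – 17-24 h seeding, 75 min 37 °C dye, 30 min RT · Compound dosing – 3 µM single concentration · Repeats – no replicates (n 1)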
CHRM1 agonist: human M1 muscarinic receptor agonism | activation, % at 3 µM | CHO-K1 hM1, Fluo-8 calcium fluorescence, agonist mode; 0% DMSO, 100% acetylcholine EC100 | P11229 | AID 588814 | hit rate 0.33% among 360,000;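 active means activation above the run's mean compound activation plus 3 SD, cut at about 16% in these data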;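 further: peak over basal fluorescence ratio within a 140 s kinetic read after compound addition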
CHO-K1 Ca PAM: nonselective activator or artifact in parental CHO-K1 calcium assay; activation, % at 3 µM; hit rate 0.02% among 360,000; ATP EC20, Fluo-8 calcium fluorescence; 0% at ATP EC20, 100% at ATP max; AID 602247;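 active means activation above the run cutoff, the mean activation of all test compounds plus 3 SD, cut at about 40% in these data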;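 further: peak over basal fluorescence ratio in a 140 s read after ATP addition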
TAAR1 antag: antagonists of human TAAR1 | inhibition, % at 3 µM | hit rate 1.5% among 360,000 | Q96RJ0 | CHO RD-HGA16 TAAR1, Fluo-8 calcium fluorescence, antagonist;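 active means inhibition above a per-plate cutoff, the mean inhibition of test compounds on that plate plus 3 SD, cut at about 49% in these data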;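 further: 0% = DMSO plus EC80 beta-PEA response and 100% = DMSO alone without agonist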
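Test system – hTAAR1-expressing CHO RD-HGA16 cells, Gα16-coupled · Reagent – β-PEA at EC80 concentration, post-compound challenge · Compound dosing – 3 µM, single point · Timing – 140 s kinetic read after compound, 140 s after agonist · Detection – Fluo-8 intracellular calcium dye fluorescence, real-time kinetic reads · Control set – DMSO and EC80 PEA controls · Repeats – n of 1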
Starred values were filed as active, the others as inactive; nt = not tested or not shown. This is a subset; count on the stated rates, not on these rows.

compound | M1 ag parental | CHRM1 antagonist | TAAR1 ag | CHRM1 agonist | CHO-K1 Ca PAM | TAAR1 antag
Cc1cccc(N2CCN(C(=O)c3cc4c(=O)n(C)c5ccccc5c4n3C)CC2C)c1 (centres undefined) | 5.7 | 17 | nt | -6 | 6 | nt
CC(C)(C)c1cc(NC(=O)COC(=O)c2ccccc2O)n(-c2ccccc2)n1 | 0.1 | -15 | -2 | 0 | 8 | -1
O=C(NCCN1CCC(n2c(=O)[nH]c3ccccc32)CC1)c1ccc2ccccc2c1 | 6.3 | nt | 6 | nt | 30 | 28
CC(=O)c1nc2ccccc2n1S(=O)(=O)c1ccc(Cl)cc1 | 0.1 | -3 | 17 | -2 | 3 | -3
CCOc1ccccc1C1NC(=O)c2ccccc2N1 (centres undefined) | 0.2 | -3 | 1 | -2 | 24 | -23
Cc1nc(-c2ccccc2)c(-c2ccccc2)[nH]1 | 1.4 | -6 | 15 | 1 | 17 | 16
Cc1nc2ccc(S(=O)(=O)NCC(=O)NCCN3CCCCCC3)cc2s1 | 0.0 | 1 | 2 | -6 | 6 | -8
NS(=O)(=O)c1ccc(NC(=O)Nc2ccc(C(F)(F)F)cc2)cc1 | 0.5 | -3 | 18 | -2 | 0 | 22
N#Cc1c(-c2cccc(Br)c2)cc(-c2ccco2)[nH]c1=O | 6.3 | 10 | 4 | 0 | 15 | -4
NS(=O)(=O)c1ccc(NC(=O)Nc2ccccc2)cc1 | 0.7 | 1 | 30 | -3 | 12 | 14

Four compounds already listed, sorted by molecular weight, low to high:
compound | M1 ag parental | CHRM1 antagonist | TAAR1 ag | CHRM1 agonist | CHO-K1 Ca PAM | TAAR1 antag
NS(=O)(=O)c1ccc(NC(=O)Nc2ccccc2)cc1 | 0.7 | 1 | 30 | -3 | 12 | 14
N#Cc1c(-c2cccc(Br)c2)cc(-c2ccco2)[nH]c1=O | 6.3 | 10 | 4 | 0 | 15 | -4
CC(C)(C)c1cc(NC(=O)COC(=O)c2ccccc2O)n(-c2ccccc2)n1 | 0.1 | -15 | -2 | 0 | 8 | -1
Cc1cccc(N2CCN(C(=O)c3cc4c(=O)n(C)c5ccccc5c4n3C)CC2C)c1 (centres undefined) | 5.7 | 17 | nt | -6 | 6 | nt

Compounds from the list above with four or more nitrogen atoms, in the order listed:
compound | M1 ag parental | CHRM1 antagonist | TAAR1 ag | CHRM1 agonist | CHO-K1 Ca PAM | TAAR1 antag
Cc1cccc(N2CCN(C(=O)c3cc4c(=O)n(C)c5ccccc5c4n3C)CC2C)c1 (centres undefined) | 5.7 | 17 | nt | -6 | 6 | nt
O=C(NCCN1CCC(n2c(=O)[nH]c3ccccc32)CC1)c1ccc2ccccc2c1 | 6.3 | nt | 6 | nt | 30 | 28
Cc1nc2ccc(S(=O)(=O)NCC(=O)NCCN3CCCCCC3)cc2s1 | 0.0 | 1 | 2 | -6 | 6 | -8
